# Assay outcomes from PubChem BioAssay.
# Lassa entry: blocks Lassa virus binding or cell entry | hit rate 4.1% among 18,000 | AID 720533 | Potency, µM (doses to about 49.2 µM), inactives show at the top dose activity change, negative = inhibition, actives largely listed as inhibitors | Lassa virus pseudotyped entry inhibition, cell-based qHTS; control for the full effect not named in the record; many of its hits are not listed in these tables; active = well fitted inhibition curve with a large enough effect; inconclusive = small, poorly fitted or top-dose-only effect; inactive = no such curve, though single readings can be large or run the other way; tested in HEK293 cells; note: luciferase read-out
# Marburg entry: blocks Marburg virus binding or cell entry; Marburg virus pseudotype entry/binding inhibition, cell-based; control for the full effect not named in the record; many of its hits are not listed in these tables; Potency, µM (top dose mostly 49.2 µM), without a hit: top-dose activity change, negative = inhibition, usual class: inhibitors; hit rate 6.5% among 18,000; AID 720532; active means well fitted inhibition curve with a large enough effect; inconclusive means small, poorly fitted or top-dose-only effect; inactive means no such curve, though single readings can be large or run the other way; tested in HEK293 cells; note: luciferase read-out
# Starred values were filed as active, the others as inactive; ? = inconclusive; / = not tested or not shown; & = joins results of further samples; ! = repeats disagree; [ ] = dose if it differs, or a comment. % is set by controls: 0 for no effect and ±100 for the full control effect; potency is the fitted concentration of half-maximal effect.
SMILES,Lassa entry,Marburg entry
CC(C)C[C@H](NC(=O)[C@H](CC(C)C)NC(=O)[C@@H](Cc1c[nH]c2ccccc12)NC(=O)[C@H](Cc1ccccc1)NC(=O)[C@@H](Cc1c[nH]c2ccccc12)NC(=O)[C@H](CCC(N)=O)NC(=O)[C@H](CCC(N)=O)NC(=O)[C@@H]1CCCN1C(=O)[C@H](CCCCN)NC(=O)[C@@H]1CCCN1C(=O)[C@@H](CCCNC(=N)N)NC(=O)[C@@H]1CCCN1C(=O)CNC(=O)[C@H](CC(C)C)NC(=O)[C@H](CC(C)C)NC(=O)[C@H](Cc1ccc(O)cc1)NC(=O)CNC(=O)[C@H](C)NC(=O)[C@H](CO)NC(=O)[C@H](CC(N)=O)NC(=O)[C@H](CC(C)C)NC(=O)[C@@H](NC(=O)[C@H](Cc1c[nH]c2ccccc12)NC(=O)CN)[C@@H](C)O)C(N)=O,-5%,11%
O[C@@H]1CN(Cc2cccs2)[C@@H](c2ccccc2)C[C@@H]1n1cc(-c2ccc(F)cc2)nn1,-23%,?
COC(=O)[C@@H]1CCCN1Cc1ccc2c(c1)CN(Cc1coc3ccccc3c1=O)CCO2,-21%,?
O=C(OC1CNC(C#Cc2cc3ncnc(Nc4ccc5c(cnn5Cc5ccccc5)c4)c3s2)C1)N1CCOCC1 (stereo not given),0.4µM*,?
COc1cc(O)c(C(=O)c2ccccc2)cc1O,-28%,?
C=CCCN1C(=O)NC(c2ccccc2)C(C(=O)OC)=C1C (stereo not given),16%[8.59 µM],-16%[8.59 µM]
CCN(CC)C(=O)N[C@@H]1C[C@H]2c3cccc4[nH]cc(c34)C[C@@H]2N(C)C1,-4%&-10%[17.8 µM],-3%&-8%[17.8 µM]
c1nc(N2CCNCC2)c2cc(-c3ccc4c(c3)OCO4)ccc2n1,-11%,?
CC1(C)CC(C(=O)N2CCOc3ccc(CN4CCC(Oc5cccnc5)CC4)cc3C2)CCO1 (stereo not given),-13%,-5%
C/C=C(\C)C(=O)OC1[C@@H]2C=C3C4CC(=O)OC(c5ccoc5)[C@]4(C)CCC3[C@@](C)(C2=O)C(C(O)C(=O)OC)C1(C)C (stereo not given in full),1%,?
O=C(NCC1Cc2cc(-c3cncnc3)cc(Cl)c2O1)c1cccc(Cn2cccn2)c1 (stereo not given),5%,-11%
O=Cc1ccccc1,28%&0%,14%&2%
CC1=C[C@@H](C)O[C@@]2(C1)C(=O)Nc1cccc(Br)c12,-37%[8.59 µM],1%[8.59 µM]
CC1(C)S[C@@H]2[C@H](NC(=O)C(c3ccccc3)S(=O)(=O)O)C(=O)N2[C@H]1C(=O)O (stereo not given in full),9%,11%
CCOC(=O)C1C/C(=C\C(C)=O)c2cccc(C(F)(F)F)c2O1 (stereo not given),8%,6%

# Some of the entries so far, tab-delimited.
SMILES	Lassa entry	Marburg entry
CC(C)C[C@H](NC(=O)[C@H](CC(C)C)NC(=O)[C@@H](Cc1c[nH]c2ccccc12)NC(=O)[C@H](Cc1ccccc1)NC(=O)[C@@H](Cc1c[nH]c2ccccc12)NC(=O)[C@H](CCC(N)=O)NC(=O)[C@H](CCC(N)=O)NC(=O)[C@@H]1CCCN1C(=O)[C@H](CCCCN)NC(=O)[C@@H]1CCCN1C(=O)[C@@H](CCCNC(=N)N)NC(=O)[C@@H]1CCCN1C(=O)CNC(=O)[C@H](CC(C)C)NC(=O)[C@H](CC(C)C)NC(=O)[C@H](Cc1ccc(O)cc1)NC(=O)CNC(=O)[C@H](C)NC(=O)[C@H](CO)NC(=O)[C@H](CC(N)=O)NC(=O)[C@H](CC(C)C)NC(=O)[C@@H](NC(=O)[C@H](Cc1c[nH]c2ccccc12)NC(=O)CN)[C@@H](C)O)C(N)=O	-5%	11%
O[C@@H]1CN(Cc2cccs2)[C@@H](c2ccccc2)C[C@@H]1n1cc(-c2ccc(F)cc2)nn1	-23%	?
COC(=O)[C@@H]1CCCN1Cc1ccc2c(c1)CN(Cc1coc3ccccc3c1=O)CCO2	-21%	?

# Further structures.
SMILES,Lassa entry,Marburg entry
CC(NC(=O)C1CCOCC1)c1nnc2n1CCN(Cc1ccc(F)cc1)CC2 (stereo not given),-4%,6%
N[C@@H](C(=O)O)[C@@H](CC(=O)O)c1ccc(Cl)cc1,22%,9%
CC1(S(=O)(=O)O)CC(=O)c2ccccc2C1=O (stereo not given),25µM*,14µM*
COC(=O)CC=C[C@@H](C)[C@H](OC)c1ccccc1Br,?,0.6µM*!
COc1cc(CN2CCC3(CCC(CNC(=O)c4ccccc4)O3)CC2)cc(OC)c1 (stereo not given),-11%,13µM*
COC(=O)c1cn([C@@H]2C[C@@H](C(=O)N3CCCCCC3)N(Cc3cc4ccccc4s3)C2)nn1,-9%,6%
CC1=C[C@H]2[C@]3(O)C(C=C(CO)C[C@]2(O)C1=O)[C@@H]1C(C)(C)[C@]1(O)[C@H](O)[C@H]3C (stereo not given in full),2%,-18%
C[C@@H]1CCC[C@]2(C)CCCC[C@@]12O,1%,6%
CCSC[C@H](NC(=O)[C@H](C)NC(=O)[C@@H](N)Cc1ccc(O)cc1)C(=O)N[C@@H](CC(=O)O)C(=O)N[C@H](C(=O)N[C@@H](C)C(=O)N[C@H](C(=O)N[C@@H](CSCC)C(=O)N[C@H](C(=O)N[C@H](C(=O)N[C@@H](Cc1cnc[nH]1)C(=O)N[C@@H](CCCNC(=N)N)C(=O)N[C@@H](CC(C)C)C(=O)N[C@@H](C)C(=O)NCC(=O)N[C@@H](CC(C)C)C(=O)N[C@@H](CC(C)C)C(=O)N[C@@H](CO)C(=O)N[C@@H](CCCNC(=N)N)C(=O)N[C@@H](CO)C(=O)NCC(=O)NCC(=O)N[C@H](C(=O)N[C@H](C(=O)N[C@@H](CCCCN)C(=O)N[C@@H](CC(N)=O)C(=O)N[C@@H](CC(N)=O)C(=O)N[C@@H](Cc1ccccc1)C(=O)N[C@H](C(=O)N1CCC[C@H]1C(=O)N[C@H](C(=O)N[C@@H](CC(N)=O)C(=O)N[C@H](C(=O)NCC(=O)N[C@@H](CO)C(=O)N[C@@H](CCCCN)C(=O)N[C@@H](C)C(=O)N[C@@H](Cc1ccccc1)C(N)=O)C(C)C)[C@@H](C)O)C(C)C)C(C)C)C(C)C)[C@@H](C)O)C(C)C)[C@@H](C)O)[C@@H](C)O,4%,13%
O=S1(=O)N[C@@H](c2ccccc2)COc2cc(Br)ccc21,11%,-17%
Cc1cc(C(=O)NCC2Cc3cccc(-c4cncnc4)c3O2)c(C)o1 (stereo not given),-11%,-41%
C=CCOC(=O)N[C@H](/C(C(=O)OC)=C(\C)NCc1ccccc1)c1cccc(F)c1,5%,-11%
O=C(Cn1c(=O)sc2ccc(Cl)cc21)N1CCN(CCO)CC1,9%,14%
Cn1ccc(C(=O)NCC2CCC3(CCN(Cc4cc(F)cc(F)c4)CC3)O2)n1 (stereo not given),-17%,-16%
O=C(C[C@H]1C(=O)N(c2ccccc2)C[C@@H]1Cc1ccccc1)Nc1ccc(Br)cc1,15%,-35%
CC(C)C[C@H]1COc2cccc(N3CCOCC3)c2S(=O)(=O)N1,9%,11%
CC(O)C(=O)O (stereo not given),-19%,6%
C=CCC(C)(O)/C=C/c1ccccc1 (stereo not given),-8%,10%
CCc1cc(S(=O)(=O)O)c2cc(C(C)C)cccc1-2,8%,19%
O=C(NCC1CCC2(CCN(Cc3cccn3-c3ccc(Cl)cn3)CC2)O1)c1ccccc1 (stereo not given),10%,-29%
COc1cc(C(C)C)c2c(c1)S(=O)(=O)N(COc1cc(=O)n3cccc(OCCN4CCCCC4)c3n1)C2=O,?,?
CC(C)N1C[C@@H](NCc2ccccc2O)C[C@H]1C(=O)N1CCN(c2cccc(C(F)(F)F)c2)CC1,?,?
CCCCCCCCCCCCC(=O)N1CCCC[C@H]1CNC(=O)[C@@H](N)CCCCN,-28%,28µM*
COc1cc(=O)n2c(c1C(=O)NCc1nccs1)CCN(Cc1ccccc1F)CC2,-14%,3%
NC(N)=NCCC[C@H](NC(=O)[C@@H](N)Cc1ccc(O)cc1)C(=O)O,1%,10%
CCC(=O)OC1(c2ccccc2)CCN(C)CC1,-6%[107 µM],-15%[107 µM]
COc1c2c(nc3ccccc13)OC(C(C)(O)CO)C2 (stereo not given),-12%,4%
CCN(CC)CCCN(c1ccccc1)C1Cc2ccccc2C1,8.9µM*,3.5µM*
NC(Cc1c[nH]c2ccccc12)C(=O)NCC(=O)O (stereo not given),4%,-2%
COC(=O)[C@@H]1C=C[C@H](C)[C@H](CCOc2ccccc2)O1,-10%,6%

# Part of the list above, reformatted:
# Every second line gives: Lassa entry	Marburg entry
COc1cc(=O)n2c(c1C(=O)NCc1nccs1)CCN(Cc1ccccc1F)CC2
    -14%	3%
CCc1cc(S(=O)(=O)O)c2cc(C(C)C)cccc1-2
    8%	19%
NC(N)=NCCC[C@H](NC(=O)[C@@H](N)Cc1ccc(O)cc1)C(=O)O
    1%	10%
CC(O)C(=O)O (stereo not given)
    -19%	6%
O=C(NCC1CCC2(CCN(Cc3cccn3-c3ccc(Cl)cn3)CC2)O1)c1ccccc1 (stereo not given)
    10%	-29%
CC(C)C[C@H]1COc2cccc(N3CCOCC3)c2S(=O)(=O)N1
    9%	11%
NC(Cc1c[nH]c2ccccc12)C(=O)NCC(=O)O (stereo not given)
    4%	-2%

# Later entries:
SMILES,Lassa entry,Marburg entry
CCCC(C(=O)OCCN(CC)CC)(c1ccccc1)c1ccccc1,?,16µM*
CC(=O)O[C@]1(C(C)=O)CC[C@H]2[C@@H]3CCC4=CC(=O)CC[C@]4(C)[C@@]3(F)[C@@H](O)C[C@@]21C,-5%,-16%
O=C1CC(c2ccc3c(c2)OCO3)c2ccc(O)cc2O1 (stereo not given),-2%,1%
C[C@]12C=CC(=O)C=C1CC[C@@H]1[C@@H]2CC[C@@]2(C)[C@H]1CC[C@]2(C)O,-13%,-7%
COc1cc2c(cc1OC)[C@@H](c1ccccc1)CN(C)CC2,-1%,-26%
COc1ccc2c3c(c(=O)oc2c1)[C@H]1O[C@](c2ccsc2)(Cc2cc(C#N)ccc21)O3,-8%[8.59 µM],-14%[8.59 µM]
COC(=O)Nc1nc2ccc(Sc3ccccc3)cc2[nH]1,?,?
CCC[C@@H]1C[C@@H](C(=O)N[C@@H]([C@H]2O[C@H](SC)[C@H](O)[C@@H](O)[C@H]2O)[C@H](C)Cl)N(C)C1,-8%[17.8 µM],9%
O=C(NCC1Cc2cc(-c3cnc4ccccc4c3)cc(F)c2O1)c1cnsn1 (stereo not given),-9%,21%
COc1ccc2c(c1)C(=O)[C@@H](O)[C@H](c1ccc(OC)c(Br)c1)O2,-10%,4%
N[C@@](C(=O)O)(c1ccc(P(=O)(O)O)cc1)C1CC1,-11%,2%
O=C(NCCc1nnc2n1CCN(Cc1ccccn1)CC2)c1ccc(F)cc1,5%,2%
CC1C(=O)OC2O[C@]3(C)CC[C@H]4C(C)CCC1[C@]24OO3 (stereo not given in full),-17%,-26%
C=CCOC(=O)N[C@@H](c1cccs1)C(C(C)=O)C(C)=O,-3%,?
CCCC=Cc1ccc(CN2C(C(C)C)C(=O)N(Cc3cn(Cc4ccco4)nn3)CCS2(=O)=O)cc1 (stereo not given),-10%,?
COCOCCn1cc(CN2CCS(=O)(=O)N(Cc3ccc(-c4cccc(N(C)C)c4)cc3)C(CC(C)C)C2=O)nn1 (stereo not given),-12%,5%
CC(=O)OC(C)C[N+](C)(C)C (stereo not given),-1%,8%
O=C=NCCCCN=C=O,-29%,2%
Cc1ncc2c(c1CNC(=O)c1ccccc1F)CCN(C(=O)c1ccccc1-n1cccn1)C2,-5%,-16%
Cc1cc(-c2ccnc(-n3ncc(C(=O)NCCc4ccncc4)c3C)n2)c(C)s1,-7%,2%
C[N+](C)(C)CC#CCOC(=O)Nc1cccc(Cl)c1,-13%&-5%,3%&8%
COc1cc2oc(-c3ccccc3)cc(=O)c2cc1O,-25%,57%[activator]
CC[C@H](C)[C@H](NC(=O)CNC(=O)[C@H](C)NC(=O)[C@H](C)N)C(=O)NCC(=O)N[C@H](C(=O)N[C@@H](CC(C)C)C(=O)N[C@H](C(=O)N[C@H](C(=O)O)C(C)C)[C@@H](C)O)[C@@H](C)CC,-5%,-11%
COC(=O)C1=C(C)N(Cc2ccccc2)C(=S)NC1c1ccc(Br)cc1 (stereo not given),/,-36%[8.59 µM]
CC(C)C[C@H](NC(=O)CNC(=O)[C@H](CCC(N)=O)NC(=O)[C@H](CC(C)C)NC(=O)[C@H](CC(C)C)NC(=O)[C@H](CCCNC(=N)N)NC(=O)[C@H](CCC(N)=O)NC(=O)[C@H](CC(C)C)NC(=O)[C@H](CCCNC(=N)N)NC(=O)[C@H](C)NC(=O)CNC(=O)[C@H](CCC(=O)O)NC(=O)[C@H](CCCNC(=N)N)NC(=O)[C@H](CC(C)C)NC(=O)[C@H](CCCNC(=N)N)NC(=O)[C@H](CO)NC(=O)[C@H](CC(C)C)NC(=O)[C@H](CCC(=O)O)NC(=O)[C@H](CO)NC(=O)[C@@H](NC(=O)[C@H](Cc1ccccc1)NC(=O)[C@@H](NC(=O)CNC(=O)[C@H](CC(=O)O)NC(=O)[C@H](CO)NC(=O)[C@@H](N)Cc1cnc[nH]1)[C@@H](C)O)[C@@H](C)O)C(=O)N[C@H](C(N)=O)C(C)C,4%,-6%
CC(Cc1ccccc1)NC=O (stereo not given),-8%,-3%
O=C1c2ccccc2C(=O)C1c1ccc(F)cc1,-11%,1%
NCC(CC(=O)O)c1ccc(Cl)cc1 (stereo not given),?,-5%&9%
O=S1(=O)N[C@H](Cc2ccccc2)COc2cc(F)ccc21,-4%,26%
